HIV Env fusion: inhibitors of HIV-1 Env-driven cell-cell fusion, primary screen, HeLa-JRFL effector, CEM21 target cells, luciferase; inhibition, % at 12.3 µM; hit rate 1.1% among 360,000;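 active = mean replicate inhibition score of at least 50 and every replicate individually at or above 50; inconclusive = only one of the two criteria met; inactive = mean below 50 and not all replicates reaching 50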;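 also: 0% = plate neutral controls and 100% = maraviroc near 300 nM; one replicate is shown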
UUG fidelity: modulators of yeast start codon fidelity, primary screen, whole organism, S. cerevisiae, single point, plate reader. hit rate 0.13% among 350,000. AID 602363, 2012. activity score, % at 18.7 µM. S. cerevisiae UUG-firefly luciferase reporter, luminescence/redox ratio;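 active = replicate mean at a twofold rise or more, about +100% in these data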;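 also: firefly luciferase made from a UUG start codon reports start codon fidelity; reporter light over untreated wells divided by growth signal over untreated wells; some hits fall short of that in this replicate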
MT1-MMP act inh: blockers of MT1-MMP proenzyme processing, primary screen, HT1080 RFP-PRO-GFP cells, GFP/RFP fluorescence. Matrix metalloproteinase-14 (Homo sapiens), P50281. GFP/RFP ratio fluorescence, overnight; percent of plate control window, DMSO zero. GFP/RFP ratio change, % at 20 µM. hit rate 0.061% among 360,000. AID 651647, 2012;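 active = GFP/RFP ratio change of at least 30% with cell ATP level not reduced by more than half and red fluorescence within 50% of control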; also: strong numbers were not always called active
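Assay system: RFP-PRO-GFP reporter HT1080 cells; read-out basis: GFP/RFP fluorescence ratio; benchmarks: DMSO wells and RFP-L50D-GFP cells; doses: 20 µM single dose, 1% DMSO; schedule: overnight cell settling, then overnight compound exposure, 37 °C, 5% CO2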
Rce1 inhib: yeast Rce1p protease inhibitors, primary screen, biochemical, fluorescence, cell-free homogeneous. CAAX prenyl protease 2 (Saccharomyces cerevisiae (strain ATCC 204508 / S288c)), Q03530. yeast membranes, quenched prenylated peptide cleavage fluorescence. calls only. hit rate 0.27% among 290,000. AID 2563, 2010;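 active = fall in fluorescence gain of 50% or more versus controls, with final raw signal at or below 3038400; inconclusive = same 50% fall but final raw signal above 3038400; inactive = fall in fluorescence gain under 50%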;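 also: plate controls were neutral control wells for no effect and wells lacking membranes for full effect; tested at 10 µM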
Target sequence (Q03530 whole entry, looked up): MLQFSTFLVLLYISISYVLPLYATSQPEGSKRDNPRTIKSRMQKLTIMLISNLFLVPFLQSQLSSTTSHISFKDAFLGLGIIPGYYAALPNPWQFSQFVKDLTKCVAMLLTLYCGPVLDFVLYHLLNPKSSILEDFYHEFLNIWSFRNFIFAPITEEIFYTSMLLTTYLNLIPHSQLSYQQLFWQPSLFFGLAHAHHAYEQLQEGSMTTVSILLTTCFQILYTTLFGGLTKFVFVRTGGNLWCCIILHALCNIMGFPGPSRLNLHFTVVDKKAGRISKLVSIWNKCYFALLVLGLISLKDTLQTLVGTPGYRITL
PABP FP inh: PABP poly(A) RNA binding inhibitors, primary screen, biochemical, fluorescence polarization, uHTS | inhibition, % at 35 µM | hit rate 1% among 290,000;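 active = 50% or more with normal probe brightness, or confirmed in later tests; inconclusive = above 50% with abnormal brightness, or retests that disagree; inactive = below 50% or failed in later tests; about a fifth of its hits are not listed in these tables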;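 also: calls also rest on retests at 20 µM and on dose response follow-up; controls were probe without protein and protein plus probe with vehicle; some compounds called inactive have numbers as strong as hits; many hits fall short of the cut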
Target sequence (P11940 whole entry, looked up): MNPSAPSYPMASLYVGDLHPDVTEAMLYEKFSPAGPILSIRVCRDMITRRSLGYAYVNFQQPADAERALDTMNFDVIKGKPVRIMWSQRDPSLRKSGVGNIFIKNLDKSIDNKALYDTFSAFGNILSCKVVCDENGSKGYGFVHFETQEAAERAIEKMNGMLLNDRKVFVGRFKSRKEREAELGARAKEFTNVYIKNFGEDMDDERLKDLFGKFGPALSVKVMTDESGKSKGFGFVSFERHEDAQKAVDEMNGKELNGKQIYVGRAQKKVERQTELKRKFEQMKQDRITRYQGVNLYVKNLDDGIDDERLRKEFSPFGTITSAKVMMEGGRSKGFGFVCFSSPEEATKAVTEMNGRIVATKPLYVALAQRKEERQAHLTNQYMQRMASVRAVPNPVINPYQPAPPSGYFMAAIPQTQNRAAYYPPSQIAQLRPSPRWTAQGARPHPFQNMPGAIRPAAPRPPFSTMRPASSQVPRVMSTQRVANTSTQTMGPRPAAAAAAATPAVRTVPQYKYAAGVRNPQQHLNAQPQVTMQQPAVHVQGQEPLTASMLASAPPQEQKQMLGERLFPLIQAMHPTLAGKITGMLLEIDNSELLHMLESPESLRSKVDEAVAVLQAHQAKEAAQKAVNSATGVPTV
eIF4H inh: human eIF4H binding inhibitors, primary screen, translation initiation inhibitor project, biochemical, uHTS, fluorescence polarization | eIF4H fluorescence polarization binding assay | inhibition, % at 35 µM | hit rate 0.94% among 290,000;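 active = 50% or more with normal probe brightness, or confirmed in later tests; inconclusive = above 50% with abnormal brightness, or retests that disagree; inactive = below 50% or failed in later tests; about a fifth of its hits are not listed in these tables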;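 also: calls also rest on retests at 20 µM and on dose response follow-up; 0% = protein and probe with vehicle and 100% = probe without protein; strong numbers were not always called active; many hits fall short of the cut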
CSC inhib: cancer stem cell viability inhibitors, primary screen, luminescence; AID 2717, 2010; hit rate 1.1% among 300,000; inhibition, % at 7.5 µM; cancer stem cell-like cells viability;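 active = mean at 75% or more and at least half the replicates too; inconclusive = mean and replicates disagree; tested in HMLE shEcad cells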;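 also: 0% = median of negative and 100% = median of positive control wells; the first replicate is given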
MT1-MMP act inh RFP: recorded beside MT1-MMP act inh, whose call it bears; RFP signal change, %; measured here: RFP expression control read;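 0 = vehicle wells; hits needed this value within 50% of zero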
* marks the source's active call; other numbers are inactive results; i = inactive; ? = inconclusive; . = no result given.

No.	molecule	MT1-MMP act inh	Rce1 inhib	eIF4H inh	CSC inhib
1	Clc1ccsc1-c1ccc2ccccc2n1	-5	i	0	-2
2	O=C(Nc1ccc(C(=O)OC2CCCCC2)cc1)c1ccncc1	-4	.	-3	32
3	CN(C)c1ccc(CNC(=O)C2(C)Cc3c(-c4cccc(C(N)=O)c4)ccnc3O2)cc1 (centres undefined)	3	.	.	.
4	Cc1cc(C(C)(C)C)ccc1OC(=O)C1=CC=CN2CCS(=O)(=O)N=C12	4	.	.	.
5	COc1ccc(C(C)=O)cc1CN1C(=O)C(C)ON=C1c1cccc(C(F)(F)F)c1 (centres undefined)	2	.	.	.
6	COc1ccc(N2CCN(C(=O)NC(=O)c3ccc(Cl)cc3)CC2)cc1	2	i	0	-4
7	CCCN1C(=O)c2ccccc2NC1c1ccc(OC)cc1OC (centres undefined)	2	i	-1	-7
8	Cc1cc(Cl)ccc1NC(=S)NC(C)(C)C	1	i	-2	-15
9	CC(=O)N1CCN(S(=O)(=O)c2cccc(C(=O)NNC(=O)COc3ccc(F)cc3)c2)CC1	4	.	.	-25
10	Cc1ccc(C(=O)CSc2ccc(-c3cccnc3)nn2)cc1	-2	i	26	-5
11	O=c1[nH]c(SCc2cccc(Cl)c2)nc2ccccc12	-1	i	-3	17
12	COc1cccc(NC(=O)c2cccc(S(=O)(=O)N3CCN(Cc4ccccc4)CC3)c2)c1	10	i	.	.
13	CCOC(=O)c1cc(CNC(=O)c2c(C)oc3c2CCCC3)c(C)o1	1	i	5	.
14	CCOC(=O)c1c(N2C(=O)Nc3ccccc3N2O)n[nH]c1-c1cccc(Cl)c1	-2	i	6	12
15	Cc1cc(C)cc(NC(=S)NCc2cccs2)c1	-5	i	-1	2

No.	UUG fidelity	HIV Env fusion	MT1-MMP act inh RFP	PABP FP inh
1	-20	-373	-2	-1
2	-9	75*	-32	-12
3	-16	-8	3	.
4	-10	-4	3	.
5	-11	3	0	.
6	-16	2	2	-5
7	-17	.	0	7
8	.	7	3	32
9	-12	9	0	.
10	.	8	-1	-32
11	.	2	0	6
12	.	13	-9	.
13	4	.	-3	-3
14	.	-10	-6	12
15	-28	8	-2	-4

Shown with values under each structure: entries from further up.
Every second line gives: MT1-MMP act inh	Rce1 inhib	eIF4H inh	CSC inhib	UUG fidelity	HIV Env fusion	MT1-MMP act inh RFP	PABP FP inh
(4) Cc1cc(C(C)(C)C)ccc1OC(=O)C1=CC=CN2CCS(=O)(=O)N=C12
→ 4	.	.	.	-10	-4	3	.
(5) COc1ccc(C(C)=O)cc1CN1C(=O)C(C)ON=C1c1cccc(C(F)(F)F)c1 (centres undefined)
→ 2	.	.	.	-11	3	0	.
(6) COc1ccc(N2CCN(C(=O)NC(=O)c3ccc(Cl)cc3)CC2)cc1
→ 2	i	0	-4	-16	2	2	-5
(7) CCCN1C(=O)c2ccccc2NC1c1ccc(OC)cc1OC (centres undefined)
→ 2	i	-1	-7	-17	.	0	7

Carrying on:
No.	molecule	MT1-MMP act inh	Rce1 inhib	eIF4H inh	CSC inhib
16	CCCNC(=O)C1(C)CCCN(C(=O)c2cc3ccccc3s2)C1 (centres undefined)	1	.	.	.
17	Cn1ccc(NC(=O)c2ccc(Cl)cc2)n1	3	.	.	.
18	COCCCNC(=O)CSC1=Nc2ccccc2C2=NC(c3ccccc3)C(=O)N12 (centres undefined)	1	i	6	-6
19	CCN(CC)C(=O)Cc1cc(C(=O)O)c2ccccc2n1	-1	i	1	-5
20	CCOC(=O)CNC(=S)N(CCCN1CCN(C)CC1)Cc1cccs1	5	i	2	-1
21	OC[C@H]1O[C@H](OC[C@H]2O[C@H](OC[C@H]3O[C@H](O[C@]4(CO)O[C@H](CO)[C@@H](O)[C@@H]4O)[C@H](O)[C@@H](O)[C@@H]3O)[C@H](O)[C@@H](O)[C@H]2O)[C@H](O)[C@@H](O)[C@H]1O	0	i	.	-11
22	CCOC(=O)c1c(C)nc2sc3c(=O)n(-c4ccc(C(C)=O)cc4)cnc3c2c1-c1ccc(OC)cc1	4	i	-9	0
23	Cc1cc(NC(=O)C2CCN(C(=O)c3ccco3)CC2)ccc1Br	2	i	.	0
24	CCOc1cc(C(=O)N2CCN(C/C=C/c3ccccc3)CC2)cc(OCC)c1OCC	-3	i	3	0
25	COc1ccc(CCn2c(C)cc(C(=O)COC(=O)c3ccc(NC(=O)CC#N)cc3)c2C)cc1	-5	i	?	-24
26	COc1ccc(-c2cc(=O)oc3cc(OCC(=O)NCC4CCC(C(=O)O)CC4)ccc23)cc1 (centres undefined)	-4	i	-2	-13
27	O=C1OCCN1N1CCOC1=O	-1	.	.	.
28	CN(C)Cc1c(C(=O)N/N=C/c2ccccc2OCc2c(F)cccc2Cl)nnn1-c1nonc1N	-9	i	1	.
29	CC(=O)Nc1cccc(N2C(=O)CCC2=O)c1	0	.	-12	-6
30	O=S(=O)(Nc1ccncc1Cl)c1cc(Cl)ccc1Cl	0	i	-10	12

No.	UUG fidelity	HIV Env fusion	MT1-MMP act inh RFP	PABP FP inh
16	-5	21	2	.
17	-7	-22	2	.
18	.	-6	7	26
19	-17	-33	6	6
20	-18	-34	5	10
21	-23	-27	5	.
22	-23	.	2	-5
23	.	?	-2	.
24	-4	.	-1	1
25	-17	.	2	?
26	-5	.	-1	12
27	2	6	2	.
28	-6	-1	-13	7
29	-19	.	3	-15
30	-21	7	1	10

(further entries)
No.	molecule	MT1-MMP act inh	Rce1 inhib	eIF4H inh	CSC inhib
31	CC(C(=O)O/N=C(\N)c1cccnc1)c1ccc([N+](=O)[O-])cc1 (centres undefined)	1	i	-2	0
32	COc1ccc(CCN2CCCn3c2nc2c3c(=O)[nH]c(=O)n2C)cc1OC	-4	i	-2	16
33	O=[N+]([O-])c1cccc(-c2nnc3cccc(Cl)n23)c1	-1	i	-2	2
34	O=C(O)c1ccc(N/N=C/C=C/c2ccccc2[N+](=O)[O-])cc1	12	i	-4	5
35	O=C(N/N=C/c1ccc(-c2cccc([N+](=O)[O-])c2)o1)c1cccs1	1	i	-6	-3
36	Cn1nc(-c2ccc(NCCO)c([N+](=O)[O-])c2)c2ccccc2c1=O	-2	i	4	-5
37	COCCN(C(=O)COC(=O)c1cc(C)n(-c2ccccc2)c1C)c1c(N)n(Cc2ccccc2)c(=O)[nH]c1=O	-1	i	.	-8
38	O=C(Nc1ccc(F)c(Cl)c1)c1ccccc1NC(=O)C1CCCCC1C(=O)O (centres undefined)	0	.	.	.
39	CN(C)C(=O)N1CCC(C(=O)NCC2CCCO2)CC1 (centres undefined)	2	i	-6	0
40	CC(C)NC(=O)/C(C#N)=C\c1ccc(N(C)C)o1	-56	i	?	-13
41	CCCCn1c(C)cc2cc(O)ccc21	-7	i	1	-6
42	Cc1nnc(NC(=O)C2CCN(C(=O)c3ccco3)CC2)s1	-1	i	-6	16
43	O=C(Cc1ccc([N+](=O)[O-])cc1)N1N=C(c2ccncc2)CC1(O)C(F)(F)F (centres undefined)	0	i	-9	-9
44	O=C(Nc1nnc(-c2ccccn2)o1)c1cccc(Br)c1	5	i	0	24
45	CC(C)(C)NC(=O)CN(C(=O)C(=O)Nc1ccc2c(c1)OCCO2)N1CCOCC1	-2	i	-8	8

No.	UUG fidelity	HIV Env fusion	MT1-MMP act inh RFP	PABP FP inh
31	.	1	3	2
32	1	14	-4	2
33	-10	-22	-2	-4
34	-6	-55	8	-13
35	.	-16	4	8
36	.	-1	-1	-8
37	.	-7	-8	.
38	7	-5	-4	.
39	-13	-39	-2	6
40	.	-17	6	?
41	-13	.	3	-8
42	-11	-2	-2	-2
43	.	9	-3	-7
44	-36	.	7	8
45	-4	0	2	4

The list continues.
No.	molecule	MT1-MMP act inh	Rce1 inhib	eIF4H inh	CSC inhib
46	COc1cc(/C=C/c2ccc3cccc(O)c3n2)cc(Cl)c1OC	12	i	17	91*
47	COc1ccc(-c2cc(C(F)F)n3ncc(C(=O)n4ccnc4C)c3n2)cc1	3	i	0	25
48	COc1ccccc1N(CC(=O)Nc1ccccc1)S(=O)(=O)c1cccs1	-1	.	.	-3
49	COC(=O)c1cccc(-n2c(C)cc(C=O)c2C)c1C	-2	i	-7	-2
50	CCC(=O)c1ccc(OCC(=O)Nc2nc(C)cs2)cc1	2	.	.	.
51	O=C(NC(=S)NC1C2CC3CC(C2)CC1C3)C12CC3CC(CC(C3)C1)C2 (centres undefined)	-18	i	2	54
52	COc1ccccc1OCCC(=O)OCC(=O)Nc1ccc(Br)cc1F	6	i	5	-10
53	CCCSc1nnc(-c2ccccc2NC(=O)CC)c(=O)[nH]1	2	i	-4	9
54	O=C(CCS(=O)(=O)c1cccs1)N1CCCC1	3	i	-10	-17
55	Cc1nc2ccc(NC(=O)c3cccnc3)cc2s1	-1	.	15	-1
56	CCOC(=O)c1c(C)[nH]c(C)c1S(=O)(=O)NCC1CCN(Cc2cccc(Cl)c2)CC1	1	i	9	-10
57	CCn1cc([N+](=O)[O-])c(C(=O)Nc2ccc(Br)cn2)n1	2	i	-1	.
58	COC(=O)c1ccccc1NC(=O)C/C(C)=N/NC(=O)Cc1ccc(Cl)cc1	-1	i	-3	.
59	CCC(C(=O)NCc1ccco1)n1nc(C)c2c(C)n(-c3ccc(C)cc3)nc2c1=O (centres undefined)	2	i	-19	-19
60	Fc1ccc2cnc(-c3ccccc3)cc2c1	6	.	.	.

No.	UUG fidelity	HIV Env fusion	MT1-MMP act inh RFP	PABP FP inh
46	-22	-177	-6	-1
47	.	6	4	11
48	-13	-1	3	.
49	-2	-28	0	20
50	-6	19	-1	.
51	.	-8	-18	3
52	.	9	7	2
53	-15	-7	-4	4
54	-9	-31	5	-6
55	.	4	3	0
56	-18	2	5	8
57	-19	-64	0	9
58	-10	6	-1	3
59	6	-7	-9	1
60	-4	-112	4	.

Compound activity (PubChem)
